Screens as filed in PubChem.
T cruzi inh: inhibitors of intracellular T. cruzi growth, primary screen, luminescence, NIH3T3 host cells; AID 1885, 2009; inhibition, % (test concentration not listed); 300,000 compounds, 1.4% hits; T. cruzi beta-gal in NIH3T3, 90 h;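 active means mean inhibition across valid replicates above about 55%, limit read from the data; inconclusive means mean below that limit but half or more replicates reach it; inactive means mean below it, under half of replicates reach it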;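 further: signal also drops with host cell toxicity which is not excluded here; 0% = plate median of DMSO wells and 100% = zero luminescence signal; higher percent means less beta-gal luminescence so fewer parasites; stock transfer was 50 nL into about 50 µL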
Calb FLC: C. albicans growth inhibition with fluconazole, primary screen, CaCi-2 strain, Alamar Blue fluorescence; C. albicans CaCi-2 (fluconazole-resistant clinical isolate) + fluconazole, 48 h; growth inhibition, % (test concentration not listed); 300,000 compounds, 0.57% hits; AID 1979, 2009;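 active means most replicates above 75%; inconclusive means exactly half above 75%; inactive means most below 75%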;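 further: all wells also contain fluconazole at 8 µg/ml as a sub-toxic cotreatment; 0% = median of DMSO wells and 100% = median of geldanamycin control wells; wells of about 8 µL received 7.5 nL stock; the first replicate is given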
rRNA inh HTS: reduced GFP signal of wild-type E. coli, primary screen, bacterial rRNA inhibitor project, GFP/RFP fluorescence, OD600, single point | E. coli WT GFP vs humanized-ribosome RFP mutants, 24 h; stronger effect = lower value; DMSO median 0, no signal -100 | GFP signal change (wild-type ribosome), % (no concentration beside the values) | 350,000 compounds, 1.6% hits | AID 720706, 2013;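 active means significant combined selectivity score with lowered wild-type GFP, culture density cut under 30%, mutant RFP and density less affected; inactive means any of these conditions unmet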; further: one replicate is shown; some compounds called inactive have numbers as strong as hits
MLL AF4-AF9 inh: inhibitors of AF4 peptide binding to AF9, primary screen, biochemical, AlphaScreen, biotin-AF4 peptide, FLAG-AF9, single point. Protein AF-9 (Homo sapiens), P42568. inhibition, % at 10 µM. 350,000 compounds, 0.47% hits;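 active means every replicate reaching a set inhibition limit, whatever the replicate mean, cut at about 25% in these data; inconclusive means mean inhibition reaches that limit but some replicates miss it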;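 further: 0% = plate neutral control median and 100% = total signal loss; the record names both 10 and 1 µM as test concentration; the first replicate is given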
Target sequence (P42568 whole entry, looked up): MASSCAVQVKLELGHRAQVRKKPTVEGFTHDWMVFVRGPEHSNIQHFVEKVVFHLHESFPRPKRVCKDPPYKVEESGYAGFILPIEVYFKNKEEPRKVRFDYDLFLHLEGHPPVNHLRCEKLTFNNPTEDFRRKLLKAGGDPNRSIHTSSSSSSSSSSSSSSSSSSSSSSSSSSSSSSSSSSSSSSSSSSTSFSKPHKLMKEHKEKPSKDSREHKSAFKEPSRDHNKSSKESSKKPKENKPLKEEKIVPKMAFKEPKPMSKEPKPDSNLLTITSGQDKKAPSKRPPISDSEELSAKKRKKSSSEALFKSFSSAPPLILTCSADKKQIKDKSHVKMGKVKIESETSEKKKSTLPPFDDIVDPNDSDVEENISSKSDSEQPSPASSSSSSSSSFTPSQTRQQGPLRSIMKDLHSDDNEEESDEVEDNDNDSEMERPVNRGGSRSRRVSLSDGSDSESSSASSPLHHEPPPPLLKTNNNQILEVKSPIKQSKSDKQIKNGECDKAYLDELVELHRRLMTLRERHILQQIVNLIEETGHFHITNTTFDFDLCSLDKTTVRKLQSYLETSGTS
ALR inh: inhibitors of human ALR sulfhydryl oxidase, primary screen, biochemical, H2O2 detection, HRP-luminol luminescence, single point. FAD-linked sulfhydryl oxidase ALR (Homo sapiens), P55789. purified ALR, DTT oxidation. inhibition, % (test concentration not listed). 290,000 compounds, 3.8% hits;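 active means mean and each replicate at 75% or more; inconclusive means only one of the two met; inactive means neither met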;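 further: stock transfer was 7.5 nL into about 7.5 µL; 0% = neutral wells and 100% = wells with inactivated enzyme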
Target sequence (P55789 whole entry, looked up): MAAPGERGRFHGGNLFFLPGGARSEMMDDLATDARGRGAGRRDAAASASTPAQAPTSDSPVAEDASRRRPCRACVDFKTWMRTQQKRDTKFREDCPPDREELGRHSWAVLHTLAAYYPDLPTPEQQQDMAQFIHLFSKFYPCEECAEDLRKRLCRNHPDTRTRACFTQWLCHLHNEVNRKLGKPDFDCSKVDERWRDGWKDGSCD
Beta cell apopt: inhibitors of cytokine-induced beta cell apoptosis, primary screen, luminescence. INS-1E cytokine-induced death, ATP luminescence, 48 h; percent of positive-control rescue, neutral wells zero. protection from apoptosis, % (test concentration not listed). 300,000 compounds, 0.8% hits. AID 435005, 2010;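 active means all replicates at 75% or more, or half of them and the mean; inconclusive means half reach 75% but not the mean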;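 further: 0% = cytokine-treated negative control wells and 100% = positive control rescue; higher means more ATP so stronger rescue from cytokine killing; wells of about 40 µL received 100 nL stock; the first replicate is given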
FGF22 binding: binders of human FGF22 protein, primary screen, FGF22 synaptogenesis inhibitor project, biophysical, thermal shift, single point | Fibroblast growth factor 22 (Homo sapiens), Q9HCT0 | recombinant FGF22 thermal shift, SYPRO orange fluorescence; percent of sucrose octasulfate shift, DMSO zero | calls only at 9.99 µM | 340,000 compounds, 1.5% hits | AID 651658, 2012;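 active means melting point raised past a set limit in the mean and every replicate; inconclusive means no clear call; three in four hits are not shown here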
Target sequence (Q9HCT0 whole entry, looked up): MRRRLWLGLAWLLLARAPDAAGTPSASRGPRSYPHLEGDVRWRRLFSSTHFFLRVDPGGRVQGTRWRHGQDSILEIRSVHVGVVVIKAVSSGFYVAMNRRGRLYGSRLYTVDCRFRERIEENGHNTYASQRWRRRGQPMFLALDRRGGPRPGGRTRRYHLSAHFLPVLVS
RanGTP-Impb inh: inhibitors of RanGTP-importin-beta interaction, primary screen, biochemical, FRET, CFP-Ran, YFP-importin-beta, homogeneous; cell-free CFP-Ran/YFP-importin-beta FRET ratio; inhibition, % (concentration not given with the values); 300,000 compounds, 1.1% hits; AID 2216, 2009;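 active means most replicates above 15%; inconclusive means exactly half above 15%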;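 further: 0% = DMSO wells and 100% = Ran loaded with GDP instead of GTP; wells of about 40 µL received 100 nL stock; the first replicate is given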
rRNA inh HTS OD600: also measured in rRNA inh HTS; calls as there; OD600 change, %; measured here: OD600 growth;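 optical density of the mix in the first replicate; 0 = DMSO median and -100 = no signal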
rRNA inh HTS RFP: recorded beside rRNA inh HTS, whose call it bears; RFP signal change, %; measured here: RFP humanized mutant strains;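 first replicate; 0 = DMSO median and -100 = no signal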
The depositor's hits bear a star; i = inactive; ? = inconclusive; / = not tested or not shown.

SMILES,Calb FLC,MLL AF4-AF9 inh,T cruzi inh,rRNA inh HTS,ALR inh,FGF22 binding,RanGTP-Impb inh,rRNA inh HTS OD600,Beta cell apopt,rRNA inh HTS RFP
CN(CC(=O)Nc1cccc(F)c1)C(=O)Cn1c(=O)cnc2ccccc21,3,29*,-3,-1,5,/,3.1,-1,3,-1.6
COc1ccc(CC(=O)NCc2n[nH]c(=S)n2-c2cccc(Cl)c2)cc1,12,-3.7,1,-23,35,i,4.5,-38,4,-14
Cc1ccc(CCN2CC(C(=O)NCCCN3CCCCC3)CC2=O)cc1 (stereo not drawn),4,3.3,-9,8,2,i,-2.7,9,1,2.6
COc1ccc(-c2ccc(SCC(=O)Nc3nnc(C)s3)nn2)cc1,5,1.9,-1,19,/,i,6.8,20,5,13
Cc1cc(C(C)(C)C)ccc1OCCN1CCCC1,-15,/,30,/,8,/,-1.2,/,/,/
Cc1ccccc1Oc1nc2ccccc2n2cnnc12,-4,-1.0,-5,19,-1,i,-2.7,14,4,4.2
O=C(Nc1ccc(CN2CCOCC2)cc1)c1ccc(-c2cccc(Cl)c2)o1,-3,/,37,/,?,/,?,/,7,/
CCCCCC(=O)NCC(C)NC(=O)CCCCC (stereo not drawn),-20,/,-11,/,-7,/,6.4,/,/,/
COc1ccc(-c2nc3ccccc3o2)cc1NC(=O)CSc1ccc(Cl)cc1,8,6.3,-5,5,-1,i,1.6,4,4,-2.8
CC(C)CC1C(C#N)=C(N)Oc2n[nH]c(-c3cccs3)c21 (stereo not drawn),-9,/,-7,/,-20,/,0.2,/,-8,/
COc1cc(NC(=S)Nc2ncccc2C)cc(OC)c1OC,5,4.5,6,-21*,-21,i,-0.8,-14*,-3,-0.2*
CCc1cc(C(=O)NCC2CCCO2)sc1C (stereo not drawn),45,3.5,-8,10,-2,i,2.9,4,-1,0.8
Clc1ccc(CSc2nnc3c(n2)[nH]c2ccccc23)cc1,/,2.1,2,1,33,i,-0.1,4,-10,-2.5
CCCC(c1c(C)n(C)n(-c2ccccc2)c1=O)c1c(C)n(C)n(-c2ccccc2)c1=O,3,/,4,/,-1,/,-0.8,/,-3,/
COc1ccc(C(=O)N2CCN(C(=O)C3COc4ccccc4O3)CC2)cc1OC (stereo not drawn),3,0.0,-2,5,4,i,2.1,9,/,0.5
CN(CC(=O)Nc1ccccc1Cl)C(=O)COC(=O)CN1C(=O)NC2(CCCC2)C1=O,6,2.5,-9,2,3,i,2.6,8,/,2.1
Cc1ccc(-c2nnc(-c3cccnc3)o2)cc1,-4,-0.7,4,10,0,i,?,4,2,-2.1
CC(=O)N1CCN(CCN=CC2=C(O)CC(c3cccs3)CC2=O)CC1 (stereo not drawn),-4,/,2,/,6,/,-0.6,/,-7,/
COc1ccc(NC(=O)c2cc3cc(C)ccc3n2C)c(OC)c1,1,-0.3,5,-2,-9,i,-0.5,13,5,-4.2
Cc1cccc(NC(=O)CSc2nc3c(c(=O)[nH]2)CCC3)c1C,5,/,4,/,/,/,-2.3,/,5,/
O=[N+]([O-])c1ccc(CSc2nnc(-c3cnccn3)o2)cc1,1,/,-10,/,0,/,1.1,/,4,/
O=C(Nc1cccc(F)c1)c1ccc(Cn2cc([N+](=O)[O-])cn2)o1,17,-3.7,-3,-13,-2,i,-4.9,-6,-1,-7.6
Cc1ccc(NC(=S)N/N=C/c2cccn2Cc2ccccc2F)cc1,-7,-2.9,48,-10,0,i,0.5,-10,-3,-7.1
Cc1ccc(C(=O)C2=C(O)C(=O)N(CCCN(C)C)C23C(=O)N(C)c2ccccc23)o1 (stereo not drawn),4,/,-17,/,-1,/,5.0,/,-3,/
O=c1cc(N2CCC(Cc3ccccc3)CC2)[nH]c(=O)n1C1CCCCC1,-3,/,21,/,-3,/,22*,/,1,/
O=S(=O)(CCSc1ccccn1)c1nc2ccccc2s1,25,-7.9,18,19,14,i,0.9,5,-3,-0.7
CCOc1cc(N2CCOCC2)c(OCC)cc1NC(=O)CSc1nccc(C)n1,25,3.5,-13,0,11,i,-0.3,5,4,0.6
COc1ccc2c(CC(=O)OCC(=O)c3ccccc3OC)coc2c1,5,/,-6,/,/,/,-1.5,/,1,/
CCOCCCNC(=O)C1CCCCN1S(=O)(=O)c1ccc(F)cc1 (stereo not drawn),-2,/,-2,/,-3,/,-4.3,/,-3,/
CNCCOCC(O)CSc1ccccc1 (stereo not drawn),-3,/,-12,/,-1,/,0.2,/,-2,/

Ordered by formula weight (ascending): some entries from above.
SMILES,Calb FLC,MLL AF4-AF9 inh,T cruzi inh,rRNA inh HTS,ALR inh,FGF22 binding,RanGTP-Impb inh,rRNA inh HTS OD600,Beta cell apopt,rRNA inh HTS RFP
Cc1ccc(-c2nnc(-c3cccnc3)o2)cc1,-4,-0.7,4,10,0,i,?,4,2,-2.1
O=c1cc(N2CCC(Cc3ccccc3)CC2)[nH]c(=O)n1C1CCCCC1,-3,/,21,/,-3,/,22*,/,1,/
CCOc1cc(N2CCOCC2)c(OCC)cc1NC(=O)CSc1nccc(C)n1,25,3.5,-13,0,11,i,-0.3,5,4,0.6

The listing continues.
SMILES,Calb FLC,MLL AF4-AF9 inh,T cruzi inh,rRNA inh HTS,ALR inh,FGF22 binding,RanGTP-Impb inh,rRNA inh HTS OD600,Beta cell apopt,rRNA inh HTS RFP
Cc1c(C(=O)/C=C/N(C)C)nnn1-c1ccc(Cl)c(Cl)c1,5,-12,11,-9,3,i,2.0,-7,-7,-0.9
Cc1ccc(C)c(CN2CCN(c3ncccn3)CC2)c1,-4,-2.9,-2,-2,/,i,-1.0,-5,1,-6.9
CCOC(=O)COc1nc(-c2ccco2)cc(-c2ccco2)c1C#N,-1,-1.5,5,3,43,i,3.6,9,-4,2.3
CCSCCOC(=O)C1=C(C)NC(=O)NC1c1cc(OC)ccc1OC (stereo not drawn),2,/,-7,/,-5,/,-1.5,/,-1,/
Cc1onc(-c2ccccc2Cl)c1C(=O)OCC(=O)c1ccc2c(c1)OCCO2,2,/,-6,/,-17,/,0.5,/,-5,/
Cn1c(=O)[nH]c(=O)c2c1nc(N1CCC(Cc3ccccc3)CC1)n2Cc1ccccc1,-2,/,35,/,-4,/,0.9,/,-1,/
COc1ccc(C2CC(c3ccc4ccccc4c3)=NN2C(=O)CNC2CCCCC2)cc1 (stereo not drawn),30,28*,80*,-53,-6,i,0.9,-82,20,-14
CCN1CCN(c2ccc(NC(=O)c3cccc(F)c3)cc2Cl)CC1,29,-1.4,18,-6,/,i,2.8,-1,3,-6.0
CSCCC(=O)N1C(C)CCCC1C(=O)O (stereo not drawn),10,/,-3,/,-1,/,-0.4,/,-4,/
COc1ccc(OCC(O)CNS(=O)(=O)c2ccc(C)cc2)cc1 (stereo not drawn),5,0.2,-14,-5,-22,i,?,1,-8,2.7
COc1ccc(NC(=O)CN2C(=O)C(c3ccccc3)=NC23CCCCCC3)cc1OC,13,-3.4,-2,/,41,i,2.2,/,6,/
CCC(C(=O)OC)n1cnc2scc(-c3ccc(C)cc3)c2c1=O (stereo not drawn),?,-3.2,-4,-8,-2,i,-2.4,-14,-5,-1.7
CC(C)c1ccc(NC2CCCN(C(=O)c3cc(C(C)C)nc(N)n3)C2)cc1 (stereo not drawn),19,1.9,14,1,97*,i,2.1,4,1,0.8
Cc1ccc(S(=O)(=O)N(CC(=O)NC2CCCC2)c2cccc(C)c2)cc1,-22,-5.6,20,-25,/,i,2.6,-25,2,-0.9
CC(C)(C)c1cc(N)on1,-2,-16,-6,5,-11,i,-2.3,11,-5,-3.3
COCCNC(=O)C(c1ccc(C)o1)N(Cc1cccs1)C(=O)c1snc(C(N)=O)c1N (stereo not drawn),-11,/,7,/,-5,/,-4.2,/,-6,/
COc1ccc(C(CC(=O)N2CCCC(C)C2)c2c(OC)cc(OC)c3c(-c4ccccc4)cc(=O)oc23)cc1 (stereo not drawn),9,3.6,30,0,-7,i,1.9,3,1,-7.2
O=C(NCc1ccc(Cl)cc1)c1ccc(CNc2c(N3CCOCC3)c(=O)c2=O)cc1,0,4.4,-1,14,/,i,?,6,-9,-3.5
S=c1[nH]nc(-c2ccc(Cl)cc2)n1-c1ccc2c(c1)OCCO2,19,/,3,/,57,/,-4.4,/,-5,/
CC(C)(C)c1ccc(/C=C/C(=O)Nc2ccncc2)cc1,18,/,36,/,/,/,5.2,/,-9,/
CCc1nnc(NS(=O)(=O)c2ccc(N3C(=O)c4ccc(C(=O)O)cc4C3=O)cc2)s1,-7,-0.5,-7,14,/,/,3.0,14,-3,4.4
CC1(C)C(=O)NCCN1C(=O)CCC(=O)O,-9,6.7,-6,20,-11,i,1.3,8,/,-0.5
COCCn1c(SCC(=O)N2CCOCC2)nc2ccccc2c1=O,1,3.7,0,4,0,i,-0.4,-2,-4,-2.5
CS(=O)(=O)Nc1ccccc1C(=O)Nc1ccccc1C(=O)N1CCCC1,12,-0.6,-7,13,2,i,6.2,1,-1,0.2
CC(=O)c1cn(CCC(C)C)c(=O)[nH]c1=O,5,0.3,-11,11,1,i,0.8,13,0,4.7
COC(CNC(=O)c1ccc2c(c1)ncn2-c1ccc(F)c(F)c1)OC,3,-1.7,-11,19,-13,i,-1.9,12,-3,1.2
CN(CC(=O)Nc1cccc(S(=O)(=O)N(C)C)c1)Cc1ccccc1,-2,0.1,7,4,-6,i,2.5,-7,0,1.9
O=C(COc1ccccc1[N+](=O)[O-])Nc1ccccc1N1CCCCC1,1,/,18,/,1,/,5.2,/,-3,/
COc1ccc(CCC(C)NCc2cc(OC)cc(OC)c2)cc1 (stereo not drawn),-20,2.3,9,3,-5,i,-3.6,-5,-6,4.8
COc1ccc(N=C(C)C2=C(O)CSC2=O)cc1,-1,0.1,15,-10,2,i,-3.7,13,-1,5.5
OCCN1CCN(CC/C=C2/c3ccccc3CSc3ccccc32)CC1,-4,12,29,-9,-6,i,-0.3,-2,/,-1.1
Cc1ncc(CN2CCCC(C(=O)Nc3ccc(-c4ccco4)cc3)C2)cn1 (stereo not drawn),10,40*,-3,4,-4,i,0.8,7,-3,2.4
O=C(O)COc1ccc(/C=N/NC(=O)COc2nsnc2N2CCOCC2)cc1,-7,-6.8,-11,8,-6,i,3.6,9,-7,-0.4
Cc1csc(SCC(=O)Nc2ccc3c(c2)OCCO3)n1,10,-0.6,-14,-18,-11,i,-0.9,-21,/,-2.2
Cn1nc(Oc2nc(N3CCOCC3)nc(N3CCOCC3)n2)ccc1=O,-3,/,1,/,-2,/,-0.7,/,-6,/

These rows are one share of the data; rates above refer to the full screens.
